VACV mCherry inh: vaccinia inhibition (mCherry reporter); Vaccinia virus mCherry reporter infection, fluorescence; about a quarter of the inactives have no number; Potency, µM (titrated, usually from 36.5 µM), for inactives: top-dose activity change, negative = inhibition, hits mostly inhibitors; 310,000 tested, 0.63% active; AID 720579; active = well fitted inhibition curve with a large enough effect; inconclusive = small, poorly fitted or top-dose-only effect; inactive = no such curve, though single readings can be large or run the other way; tested in A549 cells; also: nearly all actives have a fitted effect of over 35% in size; inactives centre near -10
Vaccinia Venus: vaccinia inhibition (Venus reporter); Vaccinia virus Venus reporter expression, fluorescence; 330,000 tested, 0.46% active; Potency, µM (doses to about 36.5 µM), for the others: at the highest dose activity change, negative = inhibition, most hits filed as inhibitors; active means well fitted inhibition curve with a large enough effect; inconclusive means small, poorly fitted or top-dose-only effect; inactive means no such curve, though single readings can be large or run the other way; tested in A549 cells; also: nearly all actives have a fitted effect of over 30% in size; inactives centre near -10
Active calls of the source: *; i = inactive; ? = inconclusive; nt = not tested or not shown; & = joins results of further samples; [ ] = another dose, or the depositor's remark. % is scaled to controls: 0 for no effect and ±100 for the full control effect; potency is read from the fitted curve at half-maximal effect.

SMILES	VACV mCherry inh	Vaccinia Venus
Cc1cccc(S(=O)(=O)NC(=O)C2(C)CCN2C(=O)Cc2ccc(Cl)cc2Cl)c1 (stereo not given)	26.3%	-5.7%
c1ccc(CNC2CN3CCC2CC3)cc1 (stereo not given)	-0.6%	-6.0%
CN1CCN(C(=O)c2cc(=O)c3cc(Cl)cc(Cl)c3o2)CC1	i	-8.5%
O=S(=O)(c1ccc(NC(=S)NCc2ccc(F)cc2)cc1)N1CCOCC1	-6.0%	-19.7%
Cc1csc(SCC(=O)NCc2cccs2)n1	-5.4%	-2.1%
COC(=O)C1CN(C(=O)C(C)Oc2cc(C)ccc2C(C)C)c2ccccc2O1 (stereo not given)	-0.7%	-10.5%
Cc1cc(C)c2c(n1)sc1c(=O)n(Cc3ccccc3Cl)nnc12	i	-5.1%
COc1ccc(-c2ccc(/C=N/NC(=O)c3cccnc3)o2)c([N+](=O)[O-])c1	-10.3%	1.5%
COCCCNC(=O)c1ccc2c(c1)nc1n2CCCCC1	i	-11.7%
O=C(C1CCCC1)N1CCN(S(=O)(=O)c2ccc(Cl)cc2)CC1	-21.6%	-7.8%
CCc1cccc(NC(=O)CSc2ncc3c(n2)-c2cc(Cl)ccc2N(C)S3(=O)=O)c1	-25.2%	-13.9%
Cc1ccc(NC(=S)NC(=O)c2ccc(-c3ccc(Cl)cc3)o2)c(O)c1	?	?
C#CCNC(=O)C[C@@H]1C[C@@]2(C(=O)OCC)CCCC=C2N(Cc2ccco2)C1=O	40.6%[activator]	1.4%
Cc1ccccc1CNC(=O)CN1C(=O)C2CCCCN2c2ccc(C(=O)N3CCCC3)cc21 (stereo not given)	-0.8%	-10.8%
O=C1CCCc2cc(S(=O)(=O)N3CCCC(C(=O)NCc4ccccc4)C3)ccc2N1 (stereo not given)	-7.9%	5.0%
NC(=O)CN1CCN(C(=O)NC2CCCCC2)CC1	-7.5%	-6.4%
COC(=O)CN1C(=O)c2cccc3cccc1c23	i	-17.1%
CC1CCN(C(=O)c2[nH]cnc2C(=O)NC2CCN(C(=O)OC(C)(C)C)CC2)CC1	-23.8%	-19.3%
C[C@@H]1CN([C@H](C)CO)C(=O)c2cc(NS(=O)(=O)c3cn(C)cn3)ccc2O[C@@H]1CN(C)S(C)(=O)=O	i	-5.5%
COc1ccc(C(=O)NC(=S)NNC(=O)CNC(=O)C2CCCCC2)cc1	7.0%	5.3%
CN(C)c1ccc(NC(=O)COC(=O)c2cc(Cl)ccc2[N+](=O)[O-])cc1	-19.3%	-16.7%
COc1ccc(S(=O)(=O)N2CC3CC(C2)c2cccc(=O)n2C3)cc1 (stereo not given)	6.3%	-1.4%
CCOC(=O)c1c(NC(=O)C2C3CCC(O3)C2C(=O)O)sc(C)c1-c1ccc(F)cc1 (stereo not given)	nt	-20.8%
O=C(CCc1ccccc1)NCCc1csc(-c2cccc(F)c2)n1	-12.9%	3.1%
COc1ccc(OC)c(Nc2nc(N)nc(CCl)n2)c1	-8.4%[7.34 µM]	-0.2%[7.34 µM]
Cn1cnnc1SC(C(=O)c1ccccc1)c1ccccc1 (stereo not given)	i	-13.1%
CCOC(=O)/C(C#N)=C/c1c(N2CCN(C)CC2)nc2ccccn2c1=O	-15.6%	-1.3%
Cc1ccc(C)c(OC(=O)CSc2nnc(-c3ccc4c(c3)OCO4)o2)c1	-10.0%	-13.2%
S=C1Nc2ccccc2Sc2ccc(Cl)cc21	-13.1%	-10.2%
CC(=O)O[C@@H]1C[C@H]2C(C)=C[C@H]3OC(=O)[C@@H](C)[C@H]3C[C@H]2[C@]1(C)O	-12.4%	-7.6%
COc1ccc(Cl)cc1C(Nc1cccnc1)c1ccc2cccnc2c1O (stereo not given)	3.55µM*	?
C/C(=N\NC(=O)Cn1nc(C)c([N+](=O)[O-])c1C)c1ccco1	i[7.34 µM]	-6.7%[7.34 µM]
N#Cc1ccccc1CN1C(=O)c2ccccc2Sc2ccc(C(=O)OCc3ccco3)cc21	-14.6%	-11.6%
CCN(CC)C(=O)N1CCN(C)CC1	-6.7%	?
O=C1CC(c2cccc([N+](=O)[O-])c2)c2c(ccc3ccccc23)N1 (stereo not given)	?	?
Cc1nc2ccc(NC(=O)CS(=O)(=O)c3ccccc3)cc2s1	-11.2%	-9.5%
Cc1cc(C)n2nc(-c3ccc(F)cc3)nc2n1	nt	-9.4%
CCN(CC(=O)NCc1ccc(Cl)cc1)C(=O)c1cccc(S(=O)(=O)Nc2ccc(OC)cc2)c1	-23.5%	-24.0%
Cc1cccc(N2CC(C(=O)Nc3nnc(SCCN4CCOCC4)s3)CC2=O)c1 (stereo not given)	-13.4%	-1.7%
CC(=O)Nc1ccc(NC(=O)C(C)Sc2n[nH]c(=O)n2Cc2ccccc2)cc1 (stereo not given)	14.6%	-4.7%
COC(=O)c1sccc1S(=O)(=O)N1CCN(c2ccccc2OC)CC1	-12.3%	-1.8%
CCCCCCCCN1C(=O)[C@H](CC(=O)NCCCOCCCC)C[C@@]2(C(=O)OCC)CCCC=C12	-20.6%	?
O=C(O)CC[N+](=O)[O-]	-2.0%&-1.4%	-6.4%&-12.0%
O=C(CCCc1ccc(N(CCCl)CCCl)cc1)NCc1ccccc1	?	?
CCOC(=O)c1csc(N)n1	-14.7%	0.5%
Cc1ccc(C)c(N(C(=O)c2csnn2)C(C(=O)NC2CCCCC2)c2ccccn2)c1 (stereo not given)	-22.0%	-7.9%
COc1ccc(-c2csc(NC(=O)C3=NN(c4ccccc4)C(=O)CC3)n2)cc1	-5.7%	-20.1%
Cc1cc(NC(=O)COC(=O)C2CC(=O)N(c3ccc(Cl)cc3)C2)no1 (stereo not given)	-17.4%	-4.4%
COC(=O)C(NC(C)=O)(Nc1ccc(Br)cn1)C(F)(F)F (stereo not given)	nt	-8.6%
CC(C)(C)NC[C@H](O)COc1cccc2[nH]c(C#N)cc12	-13.6%	-5.4%
Nc1nc(NC(=O)c2cccc(S(=O)(=O)N3CCCCCC3)c2)nc(-c2ccccc2)n1	nt	-22.3%
CCOc1ccc2nc(N3CCC(C(=O)Nc4c(C)cccc4C)CC3)sc2c1	-29.9%	?
CCc1c(C)sc2c1CCN(C(=O)Nc1cc(C)ccc1C)C2c1ccc(OC)cc1 (stereo not given)	-6.5%	3.4%
O=C(NCc1cc(Cl)cc(Cl)c1)c1ccc2nc(COCCO)[nH]c2c1	6.3%	-3.2%
COc1ccccc1NS(=O)(=O)c1cccc(C(=O)N2CCN(Cc3ccc4c(c3)OCO4)CC2)c1	i	-26.3%
COc1ccccc1OCCC(=O)N1CCN(c2ccccc2OC)CC1	-15.2%	-5.5%
COc1ccc(CCNC(=O)C(=O)N2CCCC2)cc1OC	-7.7%	-2.2%
Cc1csc2ncnc(NNC(=O)c3ccc(Cl)cc3)c12	-27.8%	-5.3%
Cc1ccc(N2C(=O)CSC23C(=O)N(CC(=O)NCCc2ccccc2)c2ccccc23)cc1C (stereo not given)	-19.8%	-21.7%
COc1ccc(C(=O)NC2c3ccccc3-c3ccccc32)cc1	-15.2%	-21.2%
Later entries.
SMILES	VACV mCherry inh	Vaccinia Venus
C/C(=N/NC(N)=S)c1ccc(Br)s1	?	?
Cc1cccc(-n2ccnc2SCC(=O)Nc2cc(C)on2)c1	-24.4%	-14.0%
COc1ccccc1/C=C/C(=O)c1cc(Br)ccc1OC(=O)c1ccco1	-13.7%	?
CCCc1cc(C(=O)Nc2cccc(-c3nn[nH]n3)c2)sc1C	-3.6%	1.8%
Cc1cccn2c(Nc3ccccc3)c(-c3ccc(N4CCOCC4)cc3)nc12	-4.9%	-5.6%
COc1ccc(NC(=O)CN(C)CC(=O)NCC2CCCCC2)cc1	-15.7%	-10.0%
COc1cccc(-c2cnc3c(NC=O)cc(-c4ccc(N(C)C)cc4)cn23)c1	-2.4%	-3.9%
O=C(NCCO)c1ccc2c3n(nc2c1)-c1ccccc1CO3	-1.4%	-5.6%
COc1ccc(NC(=O)COC(=O)CC23CC4CC(CC(C4)C2)C3)c([N+](=O)[O-])c1	i	-11.6%
CC12CCC(=O)C=C1CCC1C3CC(O)C(O)(C(=O)CO)C3(C)CC(O)C12F (stereo not given)	-11.2%	-7.5%
N#CC1=C(N)NC(SCC(=O)Nc2ccccc2)=C(C#N)C12CCCCC2	?	-25.2%
CC1CN(C(=O)COc2ccc3ccccc3c2)CC(C)O1 (stereo not given)	i	-7.0%
Nc1[nH]c(C(=O)c2ccccc2)c(-c2c(F)cccc2F)c1C(=O)c1ccc(Cl)c(Cl)c1	-23.0%	-20.5%
Cc1c(Cl)cccc1NC(=O)N1CCN(Cc2cc(=O)n3nc(-c4ccccc4F)sc3n2)CC1	-15.7%	-10.8%
Cc1c(NC(=O)C(C)OC(=O)c2cccc(S(=O)(=O)N(C)C)c2)c(=O)n(-c2ccccc2)n1C (stereo not given)	-13.8%	-8.5%
Cc1ccccc1S(=O)(=O)NC(=O)C1(C)CCN1C(=O)C/C=C/c1ccccc1 (stereo not given)	i	3.4%
O=c1[nH]c(SCc2ccccc2)nc2c1cnn2-c1ccc(F)cc1	i	-2.5%
Cc1ccc(C(=O)N2CCN(c3cccc(Cl)c3)CC2)cc1C	?	?
COc1ccc(NC(=O)Cn2nnc(C(=O)Nc3ccccc3C)c2N)cc1	-11.4%	3.2%
CCc1cccc(N(CC(=O)NC2CCCCC2)C(=O)c2csnn2)c1	-27.0%	5.7%
CCN1CNC(=S)N(C(C)c2ccccc2)C1 (stereo not given)	-11.3%	-9.0%
O=C(Cn1c(CO)nc2ccccc21)NCCc1ccccc1	i	-12.7%
COc1ccc(-c2nc3c(c4nnc(SC(C)C(=O)Nc5ccc(C)cc5)n24)COC(C)(C)C3)cc1 (stereo not given)	-14.3%	-6.4%
COCCNc1nc(NCc2ccccc2OC)c2cnn(C)c2n1	-15.7%	-10.8%
O=C(Nc1ccccc1)c1nc[nH]c1C(=O)O	-11.7%[7.34 µM]	-9.9%[7.34 µM]
CCOC(=O)C1CCN(C(=O)c2cccc(S(=O)(=O)N(C)C3CCCCC3)c2)CC1	-10.8%	-14.8%
CCCOc1c(OC)cccc1C1CC(=O)Nc2cc3c(cc21)OCO3 (stereo not given)	nt	?
COc1ccc(N=C2SC(CC(=O)Nc3ccccc3F)C(=O)N2Cc2ccco2)cc1 (stereo not given)	-12.6%	2.3%

Given with bars between the fields: 2 of the compounds above.
structure | VACV mCherry inh | Vaccinia Venus
COCCNc1nc(NCc2ccccc2OC)c2cnn(C)c2n1 | -15.7% | -10.8%
CCOC(=O)C1CCN(C(=O)c2cccc(S(=O)(=O)N(C)C3CCCCC3)c2)CC1 | -10.8% | -14.8%

Given with values under each structure: entries from further up
Values run as follows: VACV mCherry inh	Vaccinia Venus
Cc1cccc(S(=O)(=O)NC(=O)C2(C)CCN2C(=O)Cc2ccc(Cl)cc2Cl)c1 (stereo not given)
  26.3%	-5.7%
c1ccc(CNC2CN3CCC2CC3)cc1 (stereo not given)
  -0.6%	-6.0%
CN1CCN(C(=O)c2cc(=O)c3cc(Cl)cc(Cl)c3o2)CC1
  i	-8.5%
O=S(=O)(c1ccc(NC(=S)NCc2ccc(F)cc2)cc1)N1CCOCC1
  -6.0%	-19.7%
Cc1csc(SCC(=O)NCc2cccs2)n1
  -5.4%	-2.1%
COC(=O)C1CN(C(=O)C(C)Oc2cc(C)ccc2C(C)C)c2ccccc2O1 (stereo not given)
  -0.7%	-10.5%
Cc1cc(C)c2c(n1)sc1c(=O)n(Cc3ccccc3Cl)nnc12
  i	-5.1%
COc1ccc(-c2ccc(/C=N/NC(=O)c3cccnc3)o2)c([N+](=O)[O-])c1
  -10.3%	1.5%
COCCCNC(=O)c1ccc2c(c1)nc1n2CCCCC1
  i	-11.7%
O=C(C1CCCC1)N1CCN(S(=O)(=O)c2ccc(Cl)cc2)CC1
  -21.6%	-7.8%
CCc1cccc(NC(=O)CSc2ncc3c(n2)-c2cc(Cl)ccc2N(C)S3(=O)=O)c1
  -25.2%	-13.9%
Cc1ccc(NC(=S)NC(=O)c2ccc(-c3ccc(Cl)cc3)o2)c(O)c1
  ?	?
C#CCNC(=O)C[C@@H]1C[C@@]2(C(=O)OCC)CCCC=C2N(Cc2ccco2)C1=O
  40.6%[activator]	1.4%
Cc1ccccc1CNC(=O)CN1C(=O)C2CCCCN2c2ccc(C(=O)N3CCCC3)cc21 (stereo not given)
  -0.8%	-10.8%
O=C1CCCc2cc(S(=O)(=O)N3CCCC(C(=O)NCc4ccccc4)C3)ccc2N1 (stereo not given)
  -7.9%	5.0%
NC(=O)CN1CCN(C(=O)NC2CCCCC2)CC1
  -7.5%	-6.4%
COC(=O)CN1C(=O)c2cccc3cccc1c23
  i	-17.1%
CC1CCN(C(=O)c2[nH]cnc2C(=O)NC2CCN(C(=O)OC(C)(C)C)CC2)CC1
  -23.8%	-19.3%
C[C@@H]1CN([C@H](C)CO)C(=O)c2cc(NS(=O)(=O)c3cn(C)cn3)ccc2O[C@@H]1CN(C)S(C)(=O)=O
  i	-5.5%
COc1ccc(C(=O)NC(=S)NNC(=O)CNC(=O)C2CCCCC2)cc1
  7.0%	5.3%

Compound activity from PubChem BioAssay.

Rows are unselected; overall some 0.87% were active at least once.
